YopH inh: inhibitors of Yersinia enterocolitica YopH tyrosine phosphatase | fluorescence Ex485/Em525 | inhibition, %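 (about 10 µM by stock and volumes)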 | actives 0.16% (n = 140,000);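 active = inhibition of 50% or more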;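 also: controls were vehicle for no effect and minimum signal wells for full effect; inactives centre near -20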
RecA splice inh: inhibitors of M. tuberculosis RecA intein splicing | cell-free RecA intein splicing, fluorescence | AID 2221 | P9WHJ3 | actives 0.75% (n = 290,000) | inhibition, %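 (about 9 µM by stock and volumes)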; in the data active = inhibition above about 30%; inconclusive = no clear call, values can overlap the other calls;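 also: 0% = vehicle wells and 100% = reference inhibitor control wells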
Target sequence (P9WHJ3 whole entry, looked up, canonical isoform): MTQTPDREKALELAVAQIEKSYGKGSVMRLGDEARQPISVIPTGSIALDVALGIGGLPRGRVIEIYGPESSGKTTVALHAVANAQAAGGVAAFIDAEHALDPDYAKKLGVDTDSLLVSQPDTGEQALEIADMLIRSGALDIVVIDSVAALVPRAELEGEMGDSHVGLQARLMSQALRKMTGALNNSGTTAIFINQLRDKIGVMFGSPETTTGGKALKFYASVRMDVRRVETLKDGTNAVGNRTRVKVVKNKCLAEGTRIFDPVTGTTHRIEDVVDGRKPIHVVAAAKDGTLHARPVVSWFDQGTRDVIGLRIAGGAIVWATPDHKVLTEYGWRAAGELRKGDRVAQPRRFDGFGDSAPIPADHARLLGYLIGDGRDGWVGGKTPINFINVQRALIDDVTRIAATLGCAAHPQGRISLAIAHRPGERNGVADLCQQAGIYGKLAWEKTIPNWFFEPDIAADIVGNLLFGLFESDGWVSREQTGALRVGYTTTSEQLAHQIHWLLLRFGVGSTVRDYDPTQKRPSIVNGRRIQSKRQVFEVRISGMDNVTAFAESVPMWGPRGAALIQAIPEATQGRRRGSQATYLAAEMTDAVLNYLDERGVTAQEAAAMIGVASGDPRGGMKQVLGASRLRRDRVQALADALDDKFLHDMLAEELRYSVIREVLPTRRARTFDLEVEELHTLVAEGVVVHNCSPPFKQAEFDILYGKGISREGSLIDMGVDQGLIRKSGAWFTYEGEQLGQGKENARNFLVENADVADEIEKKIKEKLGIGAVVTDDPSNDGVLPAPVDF
Mtb betalactam: beta-lactam sensitization of Mtb H37Rv; M. tuberculosis H37Rv growth with meropenem, percent inhibition; hits of this screen are not shown here; inhibition, % at 25 µM; actives 0.27% (n = 330,000);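 active = about 74% or more and at least 40 points above the plate without the antibiotic, then above 30% in a dose series; inconclusive = first-round hits that could not be retested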;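 also: growth measured after seven days incubation then overnight dye step; 0% = bacteria only wells and 100% = bacteria with antibiotic; twin plates without the antibiotic show which effects depend on it; some results filed as inactive read as strong as hits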
Mtb H37Rv: M. tuberculosis H37Rv growth inhibitors, H37Rv strain (AID 1626). actives 0.95% (n = 220,000). M. tuberculosis H37Rv growth inhibition; higher % means a stronger effect. one-dose inhibition, % at 10 µM; IC50 in µM for titrated hits;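 active = confirmed in a dose series; inconclusive = inhibition above 80% but not taken into the dose series; inactive = below 80% or under 30% at every dose of the series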;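 also: bacteria incubated seven days before Alamar blue readout; 0% = bacteria only wells and 100% = bacteria with antibiotic wells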
Arbovirus anti: antivirals against arbovirus infection | actives 0.37% (n = 200,000) | inhibition, % at 10 µM | arbovirus infection cell-based antiviral screen | AID 1251;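 active = inhibition from about 30%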;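 also: bluetongue infection of BSR cells; cell survival read as ATP light after 72 h; 0% = infected wells without compound and 100% = uninfected wells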
Arbovirus anti repeat: second read-out of Arbovirus anti, no call of its own (marks repeat the call); inhibition, %; measured here: 10K subset replicate screen; many hits read low in the repeat;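 first of two repeat runs on a subset; 0% = infected and 100% = uninfected wells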
* hit, by the source's call; ? = inconclusive; nt = no result given. Not all compounds are listed; the hit share may differ from the screen's.

SMILES | YopH inh | RecA splice inh | Mtb betalactam | Mtb H37Rv | Arbovirus anti | others
CCCOc1ccc(-c2cnc(N)s2)cc1 | -26 | -6.3 | 55 | 2% | 1
O=S(=O)(c1ccc(Cl)cc1)N1CCN(c2ccccn2)CC1 | nt | -2.2 | 0 | nt | nt
Cc1sc2nc(SCC(=O)N3CC(C)OC(C)C3)n(C)c(=O)c2c1C (centres undefined) | nt | 2.8 | -2 | nt | nt
COC(=O)c1cc(CC(=O)c2ccc(O)cc2O)c(C)o1 | -1 | -2.3 | 5 | -3% | 11
COc1cc(C)c(S(=O)(=O)N2CCCC2)cc1C | -27 | -0.1 | 0 | -7% | 2
CCOc1ccc(-c2cc(C(=O)N/N=C/c3cccnc3)c3ccccc3n2)cc1 | nt | -1.0 | 8 | nt | nt
O=C(O)c1cccnc1Sc1ccc(Cl)cc1 | nt | 0.0 | -7 | 5% | 2
O=C(NCc1ccccc1)C1CCCN(C(=O)NCc2ccccc2)C1 (centres undefined) | nt | -0.6 | 3 | nt | nt
CS(=O)(=O)N(CC(=O)N1CCC(C(N)=O)CC1)Cc1ccc(Cl)c(Cl)c1 | nt | -1.6 | 2 | nt | nt
CCOC(=O)c1cn(-c2c(Cl)cccc2Cl)c2cc(Cl)c([N+](=O)[O-])cc2c1=O | -32 | 1.9 | 2 | 4% | -20
Cc1cc(C)c(S(=O)(=O)N(CC(=O)NCc2cccnc2)C2CCCCC2)c(C)c1 | -4 | 4.0 | 1 | -3% | -1
CC(C)CC1c2[nH]c3ccccc3c2CCN1C(=O)C1CCOCC1 (centres undefined) | nt | -1.5 | -6 | 4% | 8
CCn1cc(C(=O)N2CCN(c3cccc(Cl)c3)CC2)c2cc(OC)c(OC)cc2c1=O | -22 | 2.4 | -3 | -3% | 0
CCOC(=O)c1cnc(SC)nc1Oc1cccc(NS(=O)(=O)c2ccccc2)c1 | -32 | -0.3 | -8 | 7% | 0
COc1ccc(C2/C=C\CN(C(=O)C3CCCC3)CC(=O)N2Cc2ccc(F)cc2)cc1 (centres undefined) | nt | 2.0 | 0 | 1% | nt

Four entries out of the list, arranged by number of heavy atoms, low to high:
SMILES | YopH inh | RecA splice inh | Mtb betalactam | Mtb H37Rv | Arbovirus anti | others
COc1cc(C)c(S(=O)(=O)N2CCCC2)cc1C | -27 | -0.1 | 0 | -7% | 2
Cc1sc2nc(SCC(=O)N3CC(C)OC(C)C3)n(C)c(=O)c2c1C (centres undefined) | nt | 2.8 | -2 | nt | nt
CCOC(=O)c1cn(-c2c(Cl)cccc2Cl)c2cc(Cl)c([N+](=O)[O-])cc2c1=O | -32 | 1.9 | 2 | 4% | -20
COc1ccc(C2/C=C\CN(C(=O)C3CCCC3)CC(=O)N2Cc2ccc(F)cc2)cc1 (centres undefined) | nt | 2.0 | 0 | 1% | nt

Next part.
SMILES | YopH inh | RecA splice inh | Mtb betalactam | Mtb H37Rv | Arbovirus anti | others
CCn1cc(CN2CCCC(CO)(Cc3cccc(Cl)c3)C2)cn1 (centres undefined) | nt | -11 | -1 | -3% | -15
OC1(C#CCN2CCCC2)c2ccccc2-c2ccccc21 | nt | -1.5 | 0 | 6% | nt
CC1(C)Cc2ccccc2-c2nc(NCCCO)n(-c3ccccc3)c(=O)c21 | -3 | -1.3 | -16 | -3% | 15 | Arbovirus anti repeat=1
O=C(NCCc1ccccc1)C(=O)NCc1ccncc1 | -35 | -0.2 | 5 | 2% | 4
O=C(O)CCCN(Cc1cccc(Br)c1)S(=O)(=O)c1ccc(Br)cc1 | nt | 2.1 | -1 | 4% | 2
CC(OC(=O)CN1C(=O)C2C3C=CC(C4CC34)C2C1=O)C(=O)c1ccccc1 (centres undefined) | nt | 0.3 | -7 | -1% | nt
Cc1cccc(C(=O)NCCc2ccccc2)c1 | nt | 1.2 | 1 | nt | nt
Fc1ccccc1CNC(=S)Nc1cccc(C(F)(F)F)c1 | -18 | 3.5 | 15 | -5% | -9
COc1ccc(/C=N/NC(=O)Nc2ccc3nsnc3c2)c(OC)c1 | nt | 4.8 | -9 | 6% | -1
CCC1=C2CC[C@H]3C(=O)N(CC)C(=O)[C@H]3[C@H]2[C@@]2(Cc3ccccc3)C(=NCCOC)OC(=O)N2C1=O | nt | -3.3 | -7 | -2% | nt
O=C(COc1ccc2c3c(c(=O)oc2c1)CCCC3)NCc1ccncc1 | nt | -0.9 | 6 | nt | nt
NNC(=O)c1sccc1OCc1ccc(Cl)cc1 | nt | 4.2 | 1 | 5% | -5
Cc1oc(/C=N/NC(=O)CC2(C)OCCO2)cc1Br | -39 | 2.5 | -4 | 1% | -10
Cc1ccc(N2CC(C(=O)Nc3ccc4c(c3)OCO4)CC2=O)cc1 (centres undefined) | -51 | 0.1 | 6 | -13% | -2
COCCNC(=O)CN1C(=O)COc2ccc(S(=O)(=O)N3CCCCCC3)cc21 | nt | 8.5 | -7 | nt | nt

Retrieved by structure from the list above:
SMILES | YopH inh | RecA splice inh | Mtb betalactam | Mtb H37Rv | Arbovirus anti | others
NNC(=O)c1sccc1OCc1ccc(Cl)cc1 | nt | 4.2 | 1 | 5% | -5
CC1(C)Cc2ccccc2-c2nc(NCCCO)n(-c3ccccc3)c(=O)c21 | -3 | -1.3 | -16 | -3% | 15 | Arbovirus anti repeat=1

Further results follow.
SMILES | YopH inh | RecA splice inh | Mtb betalactam | Mtb H37Rv | Arbovirus anti | others
O=C(N/N=C/C1CC=CCC1)c1ccc(Cl)cc1O (centres undefined) | -27 | -2.8 | 0 | 0% | -24
CC[C@H](C)/C=C/C1=CC2=C(Cl)C(=O)[C@@]3(C)OC(=O)C(C(=O)[C@H](C)[C@@H](C)O)=C3C2=CO1 | nt | 3.6 | -8 | 9% | nt
COc1ccc(-c2nnc(SCC(=O)Nc3cc(F)ccc3C)o2)cc1 | -25 | 0.3 | 4 | -6% | -5 | Arbovirus anti repeat=5
CC(C)=CC(=O)N1CCC(n2nccc2NC(=O)CCc2ccccc2)CC1 | nt | -5.3 | -4 | nt | nt
CCOc1cc(C2C3=C(CCCC3=O)N(CC(=O)O)C3=C2C(=O)CCC3)ccc1OC | nt | 1.8 | 4 | nt | nt
CCN(CC)CC(=O)Nc1c(C)cc(C(C)(C)C)cc1C | -28 | 0.0 | -14 | -17% | -1
CCOC(=O)Cn1cnc([N+](=O)[O-])n1 | -8 | 4.8 | nt | -5% | 2
CCCc1ccc(OCC(O)CN2CCCC2)cc1 (centres undefined) | nt | -2.8 | -1 | nt | nt
Cc1cccc(OCC(=O)N/N=C\C=C\c2ccc3c(c2)OCO3)c1C | -28 | 0.1 | 3 | nt | -4
O=C(Cn1cnc2c(nnn2Cc2ccc(Cl)cc2)c1=O)NCC1CCCO1 (centres undefined) | 1 | 0.1 | ? | 0% | 9
COc1ccccc1-n1c(C)nnc1SCC(=O)Nc1cc(C)cc(C)c1 | -53 | -2.1 | 4 | 1% | 4
O=C(C1CCN(S(=O)(=O)c2ccccc2)CC1)N1CCCCCC1 | nt | -1.7 | -2 | nt | nt
CCCCN(CC)C(=O)Cn1c(=O)sc2ccccc21 | -8 | 1.7 | 3 | 6% | -5
Cc1ccc(S(C)(=O)=NC(=O)NC(=O)c2c(Cl)cccc2Cl)cc1 (centres undefined) | nt | -1.6 | -2 | -7% | nt
CCC(=O)C1CCCN(C(=O)CCc2nnc(-c3ccc(C(C)=O)s3)o2)C1 (centres undefined) | nt | -1.0 | 1 | nt | nt
COc1cccc(CNc2ncnc3cc(Cl)ccc23)c1 | nt | 2.1 | nt | 3% | 20
CCOC(=O)C1=C(N)Oc2ccc3ccccc3c2C1c1cccnc1 (centres undefined) | -19 | -0.8 | 15 | 4% | -3
CC(=O)Nc1nc(-c2ccc3c(c2)CCN3S(C)(=O)=O)cs1 | nt | 7.9 | -4 | 0% | -3
CCC(c1nnc(SCC(=O)Nc2ccc(C(C)=O)cc2)n1C1CCCCC1)N(C)C (centres undefined) | -21 | -2.9 | 3 | -5% | 2
CN1CCN(CC(=O)N2c3ccccc3C(C)(c3ccccc3)CC2(C)C)CC1 (centres undefined) | 20 | -0.5 | 7 | 11% | -20 | Arbovirus anti repeat=-15
CC(C)c1ccc(C2C(C#N)=C(N)Oc3c2oc(CO)cc3=O)cc1 (centres undefined) | nt | 0.1 | -7 | -10% | -8
O=C(NC1CCCCC1)n1c(=O)oc2ccc(Cl)cc21 | -43 | 0.0 | ? | -14% | 6
O=C(Nc1nnc(SCC(=O)N2CCCC2)s1)C1CC(=O)N(c2ccc(F)cc2)C1 (centres undefined) | nt | -2.0 | -9 | nt | nt
Cc1cccc(N2CCN(C(=O)CNC(=O)c3cccc([N+](=O)[O-])c3)CC2)c1C | nt | 3.4 | 3 | nt | nt
Cc1cc(C)cc(Nc2nc(-c3ccc(S(=O)(=O)N4CCCC4)cc3)cs2)c1 | -25 | 2.2 | 3 | -1% | -8
O=C(O)CN1C(=O)S/C(=C\c2ccc3c(c2)OCO3)C1=O | nt | -0.2 | -2 | nt | nt
CCOc1ccccc1NC(=O)N1CCC(NC(=O)c2cccc(C)c2)CC1 | -34 | -0.6 | ? | -25% | -5
COc1ccc(S(=O)(=O)N2CCOCC2)cc1NC(=O)CN(C)Cc1c(F)cccc1Cl | nt | 8.7 | -5 | -6% | -1
O=C(CSc1cccc[n+]1[O-])c1cc2ccccc2o1 | -5 | 0.4 | 99 | ? | -8
O=C(Nc1nnc(C2CC2)s1)c1ccccn1 | -9 | 3.9 | 92 | 2.7µM* | -37
O=C(Cc1cccs1)Nc1ccc(NC(=O)c2ccco2)cc1 | -21 | 2.4 | -3 | -8% | 7
CC1(C)CC(=O)c2cc(C(=O)N3CCCC(C)(C)C3)c(=O)n(-c3ccccc3)c2C1 | -43 | 1.8 | -3 | -5% | -4
O=C(Nc1cccc([N+](=O)[O-])c1)c1cccc(C(=O)Nc2cccc([N+](=O)[O-])c2)c1 | nt | 3.3 | 2 | 8% | nt
O=C1C(=O)c2ccccc2C(O)=C1CCCCl | nt | 60* | 97 | 3% | nt
CCOC(=O)c1cnc2c(C)c(Cl)ccc2c1NCCCN1CCOCC1 | nt | 0.0 | 9 | nt | nt
N/C(CC(=O)Nc1ccc(F)cc1)=N\O | -2 | -1.1 | -4 | -4% | -7
COc1ccc(NC(=O)CN2C(=O)c3cccc4cccc2c34)cc1OC | -11 | nt | -2 | -13% | -7
Cn1c(SCC(=O)NNC(=O)Cc2ccccc2)nnc1-c1ccc(Cl)cc1 | -38 | 1.7 | -5 | -4% | 13
COc1ccccc1-c1nnc(NC(=O)c2ccc(S(=O)(=O)N3CCCC3)cc2)o1 | nt | 1.9 | 77 | nt | nt
CCOc1ccc(CCNC(=O)CCc2c(C)nc3ncnn3c2C)cc1OCC | 22 | nt | 6 | -3% | 4
Fc1ccc(/C=N/NC(=S)NCCc2ccccc2)cc1F | nt | -0.2 | 4 | nt | nt
CCNCCOC(c1ccccc1)c1ccccc1 | 17 | 2.3 | -20 | -12% | 1
C=CCn1c(O)c(C(CC)=Nc2ccc(N(CC)CC)cc2)c(=O)[nH]c1=O | -35 | -2.8 | -16 | 1% | -1
COc1ccc(C(=O)Nc2ccc(-n3nncc3C(C)(C)C)cc2)cc1 | nt | 2.9 | 61 | 8% | -2
Fc1ccc(-c2ccc(NCCN3CCOCC3)nn2)cc1 | nt | 2.7 | -4 | nt | nt
Cc1cccc(OCC(O)CN2CCN(S(=O)(=O)c3ccc(C)cc3C)CC2)c1 (centres undefined) | nt | 2.7 | 16 | nt | nt
O=C(NC1CC2CCCC(C1)N2C(=O)Nc1ccccc1F)C1CC1 (centres undefined) | nt | -0.1 | 3 | nt | nt
CCC1C(C#N)=C(SCC(N)=O)NC2=C1C(=O)CC(C)(C)C2 (centres undefined) | nt | -14 | 3 | -3% | nt
COc1ccc(-c2nn(-c3ccccc3)cc2/C=C/C(=O)N2CCN(c3ccccn3)CC2)cc1 | nt | 6.6 | 88 | 50% | -6
CCCCC(=O)N/N=C/c1ccc(-c2ccc([N+](=O)[O-])cc2)o1 | nt | -3.0 | 94 | ? | -1
O=C(CNC(=O)c1ccc(F)cc1)N/N=C/c1cc(Br)ccc1OCc1ccccc1 | -9 | 6.9 | -1 | 0% | -12
COc1cc(OC)c(S(=O)(=O)Nc2ccccc2NC(=O)CN2CCOCC2)cc1NC(C)=O | nt | -2.3 | 4 | -3% | 9
Cc1cccc(N2CC(C(=O)Nc3ccc(S(=O)(=O)N4CCOCC4)cc3)CC2=O)c1 (centres undefined) | nt | nt | -4 | -3% | 2
CC1=C(C(=O)NC2CCCc3c2cnn3-c2ccc(F)cc2F)OCCO1 (centres undefined) | nt | -1.2 | 3 | nt | nt
O=C(NCc1ccccn1)c1cccc(NS(=O)(=O)c2cccc(Cl)c2)c1 | -33 | 1.0 | 1 | 10% | 0
CCCn1c(=O)[nH]c(=O)c2c1nc(-c1ccc(OC(F)F)cc1)n2CCN1CCOCC1 | -22 | -4.1 | 5 | -5% | -7

Screens as filed in PubChem BioAssay.
